# VDR inh = vitamin D3 receptor (human) inhibition. P11473. VDR-SRC2-3 peptide fluorescence polarization, 2 h. Potency, µM, without a hit: max response, negative = inhibition, hits mostly inhibitors. actives 0.93% (n = 400,000). AID 504847; active means well fitted inhibition curve with a large enough effect; inconclusive means small, poorly fitted or top-dose-only effect, or another doubt; inactive means no such curve, though single readings can be large or run the other way; further: series mostly up to about 120 µM
# Target sequence (P11473 whole entry, looked up): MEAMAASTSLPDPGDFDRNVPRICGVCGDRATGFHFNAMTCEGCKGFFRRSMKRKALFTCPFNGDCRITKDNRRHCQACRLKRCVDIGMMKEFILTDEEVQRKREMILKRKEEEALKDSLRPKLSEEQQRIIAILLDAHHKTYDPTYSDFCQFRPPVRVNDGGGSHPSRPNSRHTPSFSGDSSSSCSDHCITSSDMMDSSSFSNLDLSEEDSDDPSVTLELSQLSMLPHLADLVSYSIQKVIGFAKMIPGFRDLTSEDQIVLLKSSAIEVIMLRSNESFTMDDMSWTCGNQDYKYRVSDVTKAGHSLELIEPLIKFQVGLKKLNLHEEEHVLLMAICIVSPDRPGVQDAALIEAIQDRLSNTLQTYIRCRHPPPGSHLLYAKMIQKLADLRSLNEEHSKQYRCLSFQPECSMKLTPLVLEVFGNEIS
#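 After 23 nl compound addition and a short centrifugation, plates sat for 2 hours at ambient temperature; polarization of fluorescence then indicated loss of VDR binding to peptide SRC2-3.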
# * = called active by the depositor; ? = inconclusive; & = joins results of further samples; [ ] = remark or other dose. On the % scale 0 is the no-effect control and ±100 the full control effect; potency means the concentration at half of the fitted maximal effect. These rows are one share of the data, so the mix of outcomes need not match the whole.
SMILES,VDR inh
O=C(O)CCc1ccc(-c2ccc(F)cc2)n1NC(=O)c1ccco1,3%
C/C(=N\N=C(N)N)c1ccc(Cl)c(Cl)c1,-8%
CC1CN(c2ncc(/C=N/NC(=O)c3ccccc3O)s2)CC(C)O1 (centres undefined),-2%
CC1CCCN(Cc2c(O)ccc3c(=O)c(-c4ccc(Cl)cc4)coc23)C1 (centres undefined),-5%
CC(=O)Nc1c(C)nn(-c2ccccc2)c1N1CCC(C(=O)Nc2cccc(C(F)(F)F)c2)CC1,18%
COc1ccccc1N1CCN(c2nc(C)cc(C)c2C#N)CC1,-10%
CC1(C)CC(=O)C(N=Nc2ccc3ncsc3c2)=C(O)C1,9%
COc1ccc(CCNC(=O)Cn2nnc(C(=O)Nc3cc(C)ccc3C)c2N)cc1OC,4%
CCCNc1nc(C)nc2c1cnn2CCc1ccccc1,22%
O=C(Nc1ncccc1O)C1CCN(S(=O)(=O)c2ccc3ccccc3c2)CC1,-5%
CC(=O)N(Cc1cc(=O)[nH]c2ccccc12)c1ccccc1,-5%
O=C(COc1ccccc1Cl)NC(=S)Nc1ccccc1N1CCCC1,42%[activator]
CC(NC(=O)c1cccc(Cl)c1)C1CC2CCC1C2 (centres undefined),8%
Cc1ccc(Cl)cc1N1C(=O)CC(C)(C)CC1=O,-7%
Oc1nc(Nc2ccc(F)cc2)sc1/C=C1\C=Nc2ccccc21,10%
COc1ccc(OC)c(NC2c3ccccc3C(=O)N2Cc2ccc3c(c2)OCO3)c1 (centres undefined),1%
COc1ccccc1C(=O)Nc1nnc(SCc2cc(=O)n3ccc(C)cc3n2)s1,3%
O=c1c2sc3ccccc3c2n(Cc2cccc(C(F)(F)F)c2)c(=O)n1Cc1ccc(F)cc1,-2%
CCOC(=O)C1C(C(=O)OC)=C(CC(C)C)c2ccccc2N1S(=O)(=O)C(F)(F)F (centres undefined),-16%
CCCc1nc2ccccc2c(=O)n1/N=C/c1ccc(O)cc1,-12%
COc1ccc(Cl)cc1NC(=O)c1cccc(N2C(=O)C3CC=CCC3C2=O)c1 (centres undefined),-11%
CCC(C)n1c(=N)c(C#N)cc2c(=O)n3cc(C)ccc3nc21 (centres undefined),-2%
CCOC(=O)c1cc(C)n(-c2ccc(Cl)cc2)c1C,-11%
O=C(Nc1ccccc1C(=O)O)c1cccc(C(=O)Nc2ccccc2C(=O)O)c1,-4%
COc1ccccc1CC(=O)Nc1ccc(OC)c(OC)c1,-1%
CCc1noc(C)c1C(=O)N1CCN(S(=O)(=O)c2ccc(C(C)C)cc2)CC1,-2%
CCOc1ccc(NC(=O)CN(c2ccc(OC)cc2)S(C)(=O)=O)cc1,-7%
Cc1nn(C(=O)c2ccc(Br)cc2)c(C)c1S(=O)(=O)N1CCOCC1,-6%
COc1cccc(CN2CCc3nc(SCC(=O)Nc4ccccc4)[nH]c(=O)c3C2)c1,-6%
CN(C)CC1CC/C(=C\c2ccc(O)cc2)C1=O (centres undefined),22µM*
CN(c1ccc(C(=O)NCCSCc2ccccc2)cc1)S(=O)(=O)c1ccccc1,11%
COc1ccc(S(=O)(=O)N2CCCC(C(=O)Nc3ccc(NC(=O)c4ccccn4)cc3)C2)cc1 (centres undefined),-17%
Cc1nn(-c2ccccc2)c2sc(C(=O)c3c(N)n(C)c(=O)n(C)c3=O)cc12,-8%
COc1ccc(/C=C/c2onc(C)c2S(=O)(=O)N2CCC(C(=O)N3CCCCCC3)CC2)cc1,-5%
COc1ccc(N2C(=O)NC(NS(=O)(=O)c3ccc(Cl)cc3)(C(F)(F)F)C2=O)cc1 (centres undefined),-24%&-8%
COC(=O)C1C(=O)c2c([nH]c(C(=O)OC3CCCC3C)c2C)CC1C (centres undefined),-10%
CC(=O)C[C@H](O)CC(=O)[C@H]1OC(=O)CCCCCCCCc2ccccc21,17%
O=C(CSc1nnnn1C1CCCC1)NCc1ccccc1,0%
CCCCN(C)C(=O)c1ccc2c(c1)N(Cc1ccc(F)cc1)C(=O)c1ccccc1S2(=O)=O,5%
O=C1c2ccccc2C(=O)N1CCCCN(C(=O)c1cc2ccccc2oc1=O)c1ccc(F)cc1F,-2%
CCc1cccc(C)c1NC(=O)c1cc2ccccc2o1,6%
Cc1cc(=O)[nH]c(SCC(=O)Nc2ncc(S(=O)(=O)c3ccc([N+](=O)[O-])cc3)s2)n1,7%
CC(=O)c1cccc(S(=O)(=O)NCCCN2CCOCC2)c1,8%
CCn1c2ccccc2c2cc(NC(=O)CNCC3CCCO3)ccc21 (centres undefined),-5%
O=C(Cn1cnc2scc(-c3ccccc3)c2c1=O)N1CCOCC1,-3%
Cc1ccc(S(=O)(=O)N2CCN(C(=O)CN(Cc3ccco3)Cc3cccs3)CC2)cc1,11%
CCOc1ccccc1NC(=O)CSc1nc(=O)n(CCN2CCOCC2)c2c1CCCC2,1%
O=Cc1cn(-c2ccccc2)nc1-c1cc2ccccc2oc1=O,5%
COc1cccc(NS(=O)(=O)c2ccc3c(c2)[C@H]2C=CC[C@H]2[C@@H](c2ccccc2Cl)N3)c1,3%
COc1ccccc1C(=O)NC(=O)CSc1nncn1C(C)C,-8%
Cc1cc(OCc2nc(-c3cccnc3)no2)c(C)cc1Br,0%
CCCC[C@@H](CNC)NC[C@H](NCCCCC1CCCCC1)C(C)C,-14%
CCCCn1c(N)c(N(CCOC)C(=O)C2CCN(C(=O)c3ccc(F)cc3)CC2)c(=O)[nH]c1=O,?
CCOc1ccc(NS(=O)(=O)c2ccc(C(=O)N3CCCC3)cc2)cc1,-9%
CC(=O)c1ccc(N2CCN(c3nc4c(S(=O)(=O)c5ccc(C)c(C)c5)nnn4c4ccc(Cl)cc34)CC2)cc1,-12%
CC(C)(C)c1ccc(OCC(O)CN2CCOCC2)cc1 (centres undefined),-13%
Cc1ccc(C(=O)COc2ccccc2C(=O)Nc2ccccc2)cc1,2%
COc1ccc(C(=O)Nc2ccnn2C2CCN(C(=O)C3CCOC3)CC2)cc1 (centres undefined),1%
Cc1ccc(C)c(-n2ccnc2SCC(=O)O)c1,9%
COc1ccccc1CCCNC(=O)C1CCC(=O)N(CCc2cccc(F)c2)C1 (centres undefined),-13%
# More compounds follow:
SMILES,VDR inh
Cc1ccc2c(=O)c(C(=O)c3cccc(Cl)c3)cn(CC(=O)NCc3ccccc3)c2n1,-7%
C#CCOCCOCCOCCNc1nc(N2CCN(C(=O)[C@H]([C@@H](C)CC)n3cc(CCCCN)nn3)CC2)nc(N2CCN(C(=O)[C@H](C)n3cc(CCC(=O)O)nn3)CC2)n1,1%
NC(=O)c1sc(-c2ccsc2)cc1NS(=O)(=O)c1ccc(C(F)(F)F)cc1,-17%
COC(=O)[C@@H]1C[C@H]2CC[C@H](O)C[C@H]2N1Cc1ccc(Cl)cc1,-17%
C[N+](C)(C)C[C@H](O)CC(=O)[O-],2%
CN(C)CCNc1nc2sc3c(c2c(=O)n1CCc1ccccc1)CCCCC3,-24%
Nc1ccc(C(=O)OCC(=O)NC2CCS(=O)(=O)C2)cc1[N+](=O)[O-] (centres undefined),-19%
CC1CCCCC1NS(=O)(=O)CCNC(=O)c1ccccc1 (centres undefined),-2%
CC12CCC(C(=O)N(CC(O)CN3CCCCC3)C1=O)C2(C)C (centres undefined),-4%
Cc1cccc(NC(=O)CSc2ccc(-c3ccco3)nn2)c1,-7%
Cn1cc(Br)c(-c2cccc(NC(=O)CCC(=O)O)c2)n1,11%
CC(C)(C)NC(=O)CC(c1ccccc1)c1ccccc1O (centres undefined),5%

# Arranged by formula weight (ascending): part of the list above
SMILES,VDR inh
CC12CCC(C(=O)N(CC(O)CN3CCCCC3)C1=O)C2(C)C (centres undefined),-4%
CC1CCCCC1NS(=O)(=O)CCNC(=O)c1ccccc1 (centres undefined),-2%
Cc1cccc(NC(=O)CSc2ccc(-c3ccco3)nn2)c1,-7%
Nc1ccc(C(=O)OCC(=O)NC2CCS(=O)(=O)C2)cc1[N+](=O)[O-] (centres undefined),-19%
Cc1ccc2c(=O)c(C(=O)c3cccc(Cl)c3)cn(CC(=O)NCc3ccccc3)c2n1,-7%

# Additional structures
SMILES,VDR inh
CCn1nc(C)cc1C(=O)Sc1cccc(Cl)c1,?
O=C(CCCn1c(=S)[nH]c2cc3c(cc2c1=O)OCO3)N1CCN(c2ccc(F)cc2)CC1,6%
CC(=O)c1ccc(OCC(=O)NCc2ccc(F)cc2)cc1,7%
CCN(CC)c1ncnc2sc(C(=O)N3CCN(c4ccccc4)CC3)c(C)c12,6%
Cc1cc(F)ccc1NC(=O)c1cc(S(=O)(=O)N2CCOCC2)cn1C,6%
O=C(NCCC1=CCCCC1)c1ccc(F)c(S(=O)(=O)N2CCOCC2)c1,-1%
COc1cc(/C=C/c2ccc3c(Br)cc(Br)c(O)c3n2)ccc1O,?
O=C1O[C@H](CO)[C@@H](O)[C@H](O)[C@H]1O,-8%
CCOc1cccc(C(=O)Nc2ccc(NC(=O)c3ccc(Br)cc3)cc2)c1,-6%
CN(C)c1ccc(/C=C(\NC(=O)c2ccccc2)C(=O)NCCN2CCOCC2)cc1,-28%
CC(Cc1ccccc1)C(=O)NCCO (centres undefined),1%
N#Cc1ccc(S(=O)(=O)NCC(=O)OCC(=O)N2CCCC2=O)cc1,-2%

# Gathered by group, the entries above containing an NH in an aromatic ring (6)
SMILES,VDR inh
CC(=O)N(Cc1cc(=O)[nH]c2ccccc12)c1ccccc1,-5%
COc1cccc(CN2CCc3nc(SCC(=O)Nc4ccccc4)[nH]c(=O)c3C2)c1,-6%
COC(=O)C1C(=O)c2c([nH]c(C(=O)OC3CCCC3C)c2C)CC1C (centres undefined),-10%
Cc1cc(=O)[nH]c(SCC(=O)Nc2ncc(S(=O)(=O)c3ccc([N+](=O)[O-])cc3)s2)n1,7%
CCCCn1c(N)c(N(CCOC)C(=O)C2CCN(C(=O)c3ccc(F)cc3)CC2)c(=O)[nH]c1=O,?
O=C(CCCn1c(=S)[nH]c2cc3c(cc2c1=O)OCO3)N1CCN(c2ccc(F)cc2)CC1,6%

# More records
SMILES,VDR inh
COc1ccc2ccc(=O)oc2c1CC(O)C(C)(C)O (centres undefined),-22%
CCn1c(SCC(=O)NCC2CCCO2)nnc1-c1ccc(Cl)cc1 (centres undefined),-7%
Cc1cc(C)cc(-c2nnc(SCC(=O)c3c(N)n(C4CC4)c(=O)[nH]c3=O)o2)c1,-10%
Fc1c(F)c(-n2nnc3ccccc32)c(F)c(F)c1Cl,4%
CC[C@@H](C(=O)[C@@H](C)[C@@H](O)[C@H](C)[C@@H]1O[C@@H]([C@@H](CC)C(=O)O)CC[C@@H]1C)[C@H]1O[C@]2(C=C[C@@H](O)[C@]3(CC[C@@](C)([C@H]4CC[C@](O)(CC)[C@H](C)O4)O3)O2)[C@H](C)C[C@@H]1C,6%
Cc1nn(CC(=O)Nc2ccc(N3CCOCC3)cc2)c(C)c1[N+](=O)[O-],1%
O=C(NCc1ccc(Cl)cc1)C(=O)NCC1OCCN1C(=O)c1ccc(Cl)cc1 (centres undefined),9%
Cc1ccc2nc(-c3ccccc3)c(CN3CCN(c4ccccc4F)CC3)n2c1,-14%
CCN(CC(=O)Nc1ccc(OC(F)F)cc1)C1CCCCC1,-11%
O=C(Nc1cccnc1)c1cc2cc(Br)ccc2oc1=O,-5%
Cc1nc(N2CCCC2)ncc1C(=O)NCc1cccc(Cl)c1,4%
O=C(Nc1ccon1)c1ccccc1Cl,-1%
COC(=O)[C@H]1C[C@@H]1[C@H](NC(=O)OCc1ccccc1)c1ccccc1,16%
CC(=O)/C=C\c1ccccc1OC(=O)c1cc2ccccc2oc1=O,-25%
COC(=O)/C(C#N)=C/c1c(Oc2cccc(C)c2)nc2ccccn2c1=O,-4%
CCOCCCNC(=O)c1ccc2c(c1)N=C(CC)c1cc(Br)ccc1S2,-2%
C[C@]12CCC(=O)C=C1CC[C@@H]1[C@@H]2[C@@H](O)C[C@@]2(C)[C@H]1CC[C@]2(O)C(=O)CO,-2%&8%&5%&11%
COCCCN1C(=O)c2ccc(C(=O)OCC(=O)NCc3ccccc3OC)cc2C1=O,-7%
CCNC(=S)N/N=C(\C)c1cccc([N+](=O)[O-])c1,5%
CCCCCCCCC(NC(=O)c1ccc(C#N)cc1)C(=O)NCCC (centres undefined),3%
CCOC(=O)c1c(-c2ccccc2)csc1NC(=O)C1CCCO1 (centres undefined),-61%
CC(=O)c1c(C)[nH]c(C(=O)OCC(=O)Nc2cccc(S(=O)(=O)N3CCCC3)c2)c1C,1%
COc1ccc(/C=N/NC(=O)C(=O)N2CCCC2)cc1OC,-2%
COc1ccc(NC(=O)Nc2cccc3c2O[C@H](CN(C)S(=O)(=O)c2ccc(F)cc2)[C@@H](C)CN([C@H](C)CO)C3=O)cc1,-6%
Cc1oc(-c2cc(Cl)cc(Cl)c2)cc1C(=O)NCCc1ccccc1,-15%
Cc1ccc(C(=O)N(CN2CCCC2=O)c2ccccc2)cc1,6%
Cc1ccc(CNC(=O)C(C)n2ccc3cc(S(=O)(=O)N4CCCC4)ccc32)cc1 (centres undefined),-2%
COC(=O)c1[nH]c2ccc(Cl)cc2c1NC(=O)CCN1CCOCC1,-7%
O=C(O)C1CCN(C(=O)COc2ccc3c(c2)oc(=O)c2ccccc23)CC1,-10%
CCCn1c(C(O)c2cccc(OC)c2)nc2ccccc21 (centres undefined),?
C=CCn1c(C)nnc1SCC(=O)Nc1ccccc1C(=O)NC1CC1,5%
COc1ccccc1NS(=O)(=O)c1ccc(C(=O)Nc2ncccc2O)cc1,-1%
COCC(CN1CCN(C2=NS(=O)(=O)c3ccccc32)CC1)OC(=O)c1ccc(OC)cc1 (centres undefined),17%
CSc1ncccc1C(=O)NCC(c1ccco1)N1CCCCC1 (centres undefined),-12%

# With a hit mark in VDR inh, of those listed so far:
SMILES,VDR inh
CN(C)CC1CC/C(=C\c2ccc(O)cc2)C1=O (centres undefined),22µM*

# High-throughput results from PubChem.
